ClpP mod: qHTS Assay for Activators of ClpP | Potency, µM (highest dose often 57.5 µM), for inactives: top-dose activity change, negative = active | purified B. subtilis ClpP, FRET peptide cleavage, 20 min | ATP-dependent Clp protease proteolytic subunit (Bacillus subtilis (strain 168)), P80244 | 1.9% of 340,000 active; active = well fitted falling curve with a large enough effect; inconclusive = small, poorly fitted or top-dose-only effect; inactive = no such curve, though single readings can be large or run the other way; also: potency is read from the fitted curve at half-maximal effect; the source files actives as falling curves though it sought activators and does not explain the sign; nearly all actives have a fitted effect of over 65% in size; many hits overshoot -100%
Target sequence (P80244 whole entry, looked up): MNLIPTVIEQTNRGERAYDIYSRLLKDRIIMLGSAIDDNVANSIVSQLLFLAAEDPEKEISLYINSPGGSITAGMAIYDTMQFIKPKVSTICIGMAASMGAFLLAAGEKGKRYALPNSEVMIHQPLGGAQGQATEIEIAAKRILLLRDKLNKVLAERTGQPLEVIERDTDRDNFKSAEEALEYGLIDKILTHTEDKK
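FRET quenching reversal measured ClpP activation: 10 microg/mL B. subtilis ClpP at pH 8 with the FRET-FV decapeptide, read at 430 nm after 320 nm excitation. The 20-min minus 0-min signal was scaled between DMSO/no-enzyme wells and ADEP (5.8 microM final).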
TRPML1 inh: blocks the human TRPML1 channel; Q9GZU1; activity change, negative = inhibition, % (no concentration beside the values); AID 624415; TRPML1-inducible cells, Ca2+ dye fluorescence, FDSS; active compounds read low; inhibition of EC80 agonist-evoked calcium signal; 0.02% of 390,000 active; in the data active means activity change below about -50%; inconclusive means about -30% to -50%; inactive means above about -30%;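 also: stimulus is agonist 54-4 at its EC80 concentration; % is scaled to controls: 0 for no effect and ±100 for the full control effect; compound concentration not given in the record; the text of the record puts the active cut at -80%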
Target sequence (Q9GZU1 whole entry, looked up): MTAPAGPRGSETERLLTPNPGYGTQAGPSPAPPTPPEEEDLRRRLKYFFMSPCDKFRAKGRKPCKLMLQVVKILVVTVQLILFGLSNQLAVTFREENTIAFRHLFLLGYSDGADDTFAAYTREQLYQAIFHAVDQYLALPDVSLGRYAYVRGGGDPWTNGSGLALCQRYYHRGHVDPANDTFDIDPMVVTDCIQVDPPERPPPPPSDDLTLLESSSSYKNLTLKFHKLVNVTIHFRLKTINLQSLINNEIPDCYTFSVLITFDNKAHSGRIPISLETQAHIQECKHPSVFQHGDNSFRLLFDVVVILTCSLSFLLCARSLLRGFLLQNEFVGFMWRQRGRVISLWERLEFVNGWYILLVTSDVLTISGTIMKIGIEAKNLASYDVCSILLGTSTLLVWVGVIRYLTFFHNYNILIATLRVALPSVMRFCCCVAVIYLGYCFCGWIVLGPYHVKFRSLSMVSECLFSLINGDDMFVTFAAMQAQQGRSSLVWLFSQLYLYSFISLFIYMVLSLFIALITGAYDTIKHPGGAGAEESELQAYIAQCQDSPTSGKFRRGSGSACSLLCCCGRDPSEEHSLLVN
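Tet-induced TRPML1-DL cells loaded with Ca8 no-wash calcium dye were read kinetically on FDSS. Compound addition was followed by EC80 agonist 54-4 (4 uM final); inhibition was read over 110 s.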
gsp antagonist: antagonists of gsp mutant (McCune-Albright syndrome); Potency, µM (highest dose often 76.9 µM), for the others: at the top dose activity change, negative = inhibition, actives largely listed as inhibitors; gsp-mutant cells, cAMP HTRF, 30 min; control for the full effect not named in the record; 0.4% of 340,000 active; AID 624288; active = falling curve of any shape with a large fitted effect; inconclusive = falling curve, mostly with a smaller effect; inactive = flat or rising curve; cell line not stated here;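 also: intracellular cAMP measured with PDE inhibitor Ro 20-1724 present during compound exposure; potency is read from the fitted curve at half-maximal effect; % is scaled to controls: 0 for no effect and ±100 for the full control effect; nearly all actives have a fitted effect of over 65% in size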
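HTRF cAMP read-out (cAMP-d2 plus anti-cAMP antibody-K in lysis buffer, 30 min RT). Before lysis, cells are exposed to compounds with […] for 30 min at 37C in DPBS containing Ca/Mg, BSA and Tween 20.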
gsp ag: activates gsp, the McCune-Albright syndrome mutation; gsp mutant cells, cAMP HTRF, 30 min; control for the full effect not named in the record; Potency, µM (doses to about 76.9 µM), for the others: at the top dose activation (cAMP increase), usual class: activators; 0.13% of 340,000 active; active = well fitted activation curve with a large enough effect; inconclusive = small, poorly fitted or top-dose-only effect, or another doubt; inactive = no such curve, though single readings can be large or run the other way; cell line not stated here;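 also: phosphodiesterase inhibitor Ro 20-1724 added with compounds to block cAMP breakdown; potency is read from the fitted curve at half-maximal effect; nearly all actives have a fitted effect of over 60% in size; about a fifth of the inactives were tested at one dose only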
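Cells stably selected in G418 were plated at 2000/well, grown 16-24 hr, then given compounds in DMSO with the PDE inhibitor […] (300 uM solution added) for 30 min at 37C; cAMP was read by HTRF.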
Menin MLL FP FL: displaces fluorescein MLL peptide from human menin. Fluorescence polarization, fluorescein-MLL peptide displacement from menin. FP activity change, % at 61.4 µM. 290,000 tested, under 10 active. AID 1766; inconclusive = falling polarisation curve, or a change in total fluorescence; inactive = total fluorescence flat and polarisation flat or rising; no compound was filed as active; the % refers to the polarisation; negative = inhibition;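 also: % of control where 0% means no effect; inhibitors lower the polarisation; unlabelled MLL peptide was the positive control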
Sfp PPTase inh: blocks B. subtilis Sfp PPTase activity | 3.5% of 310,000 active | Biochemical Sfp PPTase activity, qHTS | Potency, µM, for inactives: max response, negative = inhibition, usual class: inhibitors; active = well fitted inhibition curve with a large enough effect; inconclusive = small, poorly fitted or top-dose-only effect, or another doubt; inactive = no such curve, though single readings can be large or run the other way;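 also: the enzyme is Sfp with the accession as filed and its product quenches rhodamine fluorescence; potency is read from the fitted curve at half-maximal effect; 0% = enzyme reaction without inhibitor and -100% = no enzyme wells; top concentration of the series not given in the record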
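With Hepes-Na pH 7.6 buffer containing 10 mM MgCl2, Sfp (15 nM) modified BHQ-2-YbbR (12.5 uM) using rhodamine-CoA (5 uM). Two reads 30 minutes apart at 525/598 nm yielded each well's rate.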
TRPV1 PAM: enhances activation of the human vanilloid receptor TRPV1. AID 540277. 0.02% of 320,000 active. potentiation, % at 8.33 µM. Q8NER1. TRPV1-expressing cells, Fluo-8 calcium influx, capsaicin EC20 potentiation; host cell line not named in the record; control for the full effect not named in the record; active means potentiation above 80%; inconclusive means 30% to 80%; inactive means below 30%; also: 0% is about no effect
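Fluo-8 calcium influx in TRPV1-expressing cells, kinetic read (ex 480/em 520 nm). Compound added and read 3 min for agonist activity, followed by capsaicin at EC20 final and 2 min further read for enhancement.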
Numbers without * were called inactive; u = inconclusive; x = no result given; & = joins results of further samples; [ ] = remark or other dose.

Assay codes: A = ClpP mod; B = TRPML1 inh; C = gsp antagonist; D = gsp ag; E = Menin MLL FP FL; F = Sfp PPTase inh; G = TRPV1 PAM
Cc1nc2c(nnn2Cc2ccccc2)c(=O)n1-c1ccccc1
  A: 0.0%	B: -11	C: -2%	D: 17%	E: 0.0	F: 8%	G: x
O=C(CSc1nnc(CNC(=O)c2ccccc2F)o1)NC1CCCC1
  A: 0.3%	B: 1	C: -7%	D: u	E: x	F: 4%	G: -4
COc1ccc(-c2ccc(/C=C3/C(=N)N4C(C)=CSC4=NC3=O)o2)c([N+](=O)[O-])c1
  A: 0.3%	B: -4	C: -4%	D: -14%	E: 2.0	F: 13%	G: -5
CCOC(=O)C(C)NC(=O)C(NC(=O)C1CCC(CC)CC1)C(C)C (configuration not stated)
  A: -0.1%	B: 1	C: -7%	D: -2%	E: 1.1	F: 3%	G: -3
CCOC(=O)c1cccc(NC(=O)CCc2c(C)nc3ncnn3c2C)c1
  A: -0.6%	B: 3	C: 4%	D: u	E: -1.5	F: 7%	G: -4
Cc1oc2cc(O)cc(O)c2c(=O)c1-c1ccc2c(c1)OCCCO2
  A: -0.7%	B: -14	C: u	D: -12%	E: 3.4	F: -16%	G: 5
CCCCC(=O)Nc1nnc(SCC(=O)NCC2CCCO2)s1 (configuration not stated)
  A: -12%	B: -3	C: 4%	D: 6%	E: x	F: x	G: 25
COc1ccc(CNC(=O)c2cc3ccccc3o2)cc1OC
  A: x	B: -5	C: -1%	D: -48%[inhibitor]	E: -10	F: 11%	G: -5
CSCC[C@H](NS(=O)(=O)c1ccc(C)cc1)C(=O)N1CCC(C(=O)N[C@@H](Cc2ccc(O)cc2)C(=O)O)CC1
  A: -2.2%	B: x	C: 7%	D: x	E: 5.5	F: 2%	G: 6
Cc1ccc(Nc2nc(C)cc(C)c2C(N)=O)cc1
  A: 0.8%	B: -8	C: 25%	D: -24%	E: 2.3	F: 16%	G: 8
O=C(C1=C(O)C(=O)N(CC2CCCO2)C1c1cccc(Cl)c1)c1ccco1 (configuration not stated)
  A: x	B: -9	C: -12%	D: u	E: -9.5	F: -6%	G: -2
COc1ccc([C@]2(C(C)C)ON(c3ccccc3C(F)(F)F)C2=O)cc1
  A: -0.7%	B: -3	C: 10%	D: u	E: x	F: x	G: -6
OC(COc1ccccc1CNCc1cccnc1)CN1CCc2ccccc2C1 (configuration not stated)
  A: -1.3%	B: 20	C: -1%	D: -6%	E: -2.5	F: -3%	G: 2
COc1nc(N(C#N)CC(N)=O)nc(N2CCCC2)n1
  A: -2.8%	B: 10	C: 16%	D: 12%	E: 9.5	F: 15%	G: 2
CCOC(=O)c1ccc(NC(=S)N2CCC(O)CC2)cc1
  A: x	B: -8	C: 0%	D: -11%[15.4 µM]	E: 5.8	F: -2%	G: 7
Cc1cc(C)c2c(CC(=O)NCc3ccco3)coc2c1
  A: -0.4%	B: 51	C: 5%	D: -34%[inhibitor]	E: 0.0	F: -14%	G: -5
CCOC(=O)c1[nH]c(C)c(C(=O)Nc2ccc(C)c(C)c2)c1C
  A: 0.0%	B: 14	C: -15%	D: -24%	E: 1.2	F: 14%	G: x
CC(=O)N(Nc1ccccc1)c1ccccc1
  A: 0.4%	B: -10	C: 15%	D: -7%[15.4 µM]	E: -1.9	F: 17%	G: 10
O=C(c1ccccc1)c1cncc(Br)c1
  A: -0.4%	B: -1	C: 6%	D: 14%	E: 1.4	F: 8%	G: 3
O=C(N/N=C/c1c(F)c(F)c(F)c(F)c1F)c1cc(-c2ccccc2)nc2ccccc12
  A: -1.1%	B: 21	C: 3%	D: u	E: 10	F: 11%	G: 6
FC(F)(F)c1ccc(C2[C@H]3CN(CC4CCCCC4)[C@H](c4ccccc4)C34CC2(c2cccnc2)C4)cc1 (some centres not stated)
  A: 0.4%	B: 3	C: -7%	D: x	E: 4.4&6.1	F: -1%&-1%	G: -34
O=C1CCCCC1C(Nc1ccc(Cl)cc1)c1ccccc1 (configuration not stated)
  A: 0.9%	B: -2	C: -11%	D: 0%	E: -1.0	F: -10%	G: -7
CCCCN(C)C(=O)Cc1c(OC)ccc2cc(Br)ccc12
  A: u	B: 2	C: 3%	D: 4%	E: 0.6	F: 1%	G: 1
COC(=O)/C(=C/N(C)C)C(=O)N1CCN(c2ccc(Cl)c(Cl)c2)CC1
  A: x	B: -13	C: -11%	D: -21%	E: -3.0	F: -8%	G: -2
Cc1cccc(C)c1OCC(=O)NNC(=O)Nc1ccc(Cl)cc1
  A: -0.4%	B: -1	C: 2%	D: -48%[inhibitor]	E: 0.2	F: 13%	G: 10

Grouped by structure: those above with a CF3 group.
Assay codes: A = ClpP mod; B = TRPML1 inh; C = gsp antagonist; D = gsp ag; E = Menin MLL FP FL; F = Sfp PPTase inh; G = TRPV1 PAM
COc1ccc([C@]2(C(C)C)ON(c3ccccc3C(F)(F)F)C2=O)cc1
  A: -0.7%	B: -3	C: 10%	D: u	E: x	F: x	G: -6
FC(F)(F)c1ccc(C2[C@H]3CN(CC4CCCCC4)[C@H](c4ccccc4)C34CC2(c2cccnc2)C4)cc1 (some centres not stated)
  A: 0.4%	B: 3	C: -7%	D: x	E: 4.4&6.1	F: -1%&-1%	G: -34

(next part)
Assay codes: A = ClpP mod; B = TRPML1 inh; C = gsp antagonist; D = gsp ag; E = Menin MLL FP FL; F = Sfp PPTase inh; G = TRPV1 PAM
CC(C)(CCc1ccccn1)C(=O)CCCc1ccccn1
  A: x	B: 4	C: 10%	D: -22%	E: x	F: x	G: x
O=C(Oc1ccc(-c2nnco2)cc1)N1CCOCC1
  A: -1.8%	B: -9	C: 0%	D: -4%	E: 0.3	F: 7%	G: 3
COc1ccc(NC(=O)CC2CCCC2)cc1OC
  A: x	B: -1	C: 6%	D: 21%	E: x	F: -7%	G: -27
O=C(/C=C/c1ccc([N+](=O)[O-])cc1)N1CCN(Cc2ccccc2)CC1
  A: x	B: 10	C: 5%	D: -76%[inhibitor]	E: 6.3	F: 11%	G: -24
Cc1cccc(NC(=O)NNC(=O)COc2ccc(Cl)cc2)c1
  A: -1.7%	B: 3	C: 9%	D: u	E: 0.9	F: 7%	G: 23
COc1ccc(CNC(=O)CCSCc2cccc(Cl)c2)c(OC)c1
  A: -1.7%	B: 8	C: -10%	D: -28%	E: -3.3	F: 3%	G: -5
CCC(C)c1ccc(S(=O)(=O)N2CCN(CC(O)CN3CCOCC3)CC2)cc1 (configuration not stated)
  A: 1.5%	B: 14	C: 11%	D: 16%	E: x	F: x	G: u
Cc1ccc([C@H]2N[C@]3(CCCN(CC4CCCCC4)C3=O)[C@H]3C(=O)N(C)C(=O)[C@@H]23)cc1
  A: 1.4%	B: 11	C: x	D: 2%	E: x	F: x	G: x
COc1ccc(NC(=O)C2CCCN2S(=O)(=O)c2cccs2)c([N+](=O)[O-])c1 (configuration not stated)
  A: x	B: 3	C: -1%	D: 0%[15.4 µM]	E: x	F: x	G: 10
CC(C)(C)NC(=O)CSc1nnnn1C(C)(C)C
  A: 1.8%	B: 5	C: 3%	D: -49%	E: -0.7	F: 7%	G: 6
CC(C)[C@H](NC(=O)N1c2ccccc2NC(=O)[C@@H]1C(C)C)C(=O)N1CCC[C@H]1C(=O)O
  A: 0.4%	B: x	C: 0%	D: x	E: 34[activator]	F: 17%	G: 4
O=C(CNC(=O)c1ccccc1O)N/N=C/c1cc(Br)ccc1OC(=O)/C=C/c1ccco1
  A: x	B: 8	C: -28%	D: -29%	E: 13	F: -13%	G: 6
COc1cc(/C=N/NC(=O)c2cccc3ccccc23)ccc1OCC(N)=O
  A: x	B: 15	C: -1%	D: -3%	E: x	F: x	G: x
O=C1CC=Nc2ccc([N+](=O)[O-])cc21
  A: 0.0%	B: -4	C: x	D: u	E: x	F: x	G: x
Cc1ccccc1C(=O)NCC(=O)NNC(=O)CCN1CCN(c2ccccc2)CC1
  A: 0.5%	B: 10	C: 11%	D: -3%[15.4 µM]	E: x	F: 12%	G: -11
O=C(CN(c1ccc([N+](=O)[O-])cc1)S(=O)(=O)c1ccccc1)N1CCCCC1
  A: 0.5%	B: 7	C: -4%	D: -27%	E: -7.0	F: -5%	G: -23
COc1ccc(Cl)cc1N1CCN(CCNC(=O)Nc2ccccc2C)CC1
  A: 1.1%	B: -3	C: -22%	D: -34%[inhibitor]	E: 1.9	F: -6%	G: -2
CCOc1ccc(C2C(C(=O)OC)=CN(CCOC)C=C2C(=O)OC)cc1
  A: 33%	B: -8	C: -6%	D: -19%	E: 2.1	F: 11%	G: 8
CC(C)Oc1ccc(N2CC(C(=O)OCC(=O)NCc3ccccc3)CC2=O)cc1 (configuration not stated)
  A: -1.8%	B: 5	C: -11%	D: -5%	E: -0.8	F: 22%	G: -6
O=C(c1ccccc1)c1ccccc1C(=O)c1ccccc1
  A: 0.0%	B: -11&17	C: 2%&-35%	D: -7%	E: 5.8&3.0	F: 15%&7%	G: -5&-7
Cc1oc(-c2cccc(Cl)c2)nc1CN1CCC(C(=O)N2CCN(c3ccccn3)CC2)CC1
  A: -14%	B: -10	C: 6%	D: -44%[inhibitor]	E: x	F: x	G: x
CCCCCn1c(=O)c(C(=O)OCC)c(O)c2ccccc21
  A: -1.2%	B: 5	C: -13%	D: 17%	E: -1.9	F: -8%	G: 2
CC(C)NC(=O)/C(C#N)=C/c1ccc(N(C)C)o1
  A: 0.3%	B: -8	C: 35µM*	D: -1%[15.4 µM]	E: u	F: -15%	G: -4
Cc1oc2ccc(O)c(CN(C)C)c2c1C(=O)c1ccccc1
  A: x	B: -14	C: 14%	D: 15%	E: -0.1	F: -7%	G: 7
CCCCN(CCCNC(=O)C1CCCN(S(=O)(=O)CC)C1)Cc1ccccc1 (configuration not stated)
  A: 1.2%	B: -7	C: -6%	D: -1%	E: 2.5	F: 4%	G: -10
O=C(CSc1nnc(SCc2cccc3ccccc23)s1)N/N=C/c1c[nH]c2ccccc12
  A: 0.5%	B: 0	C: -13%	D: -57%[inhibitor]	E: -0.2	F: 4%	G: 3
COc1ccc(OCC(=O)Nc2cccc(C(=O)Nc3ccccc3C(=O)O)c2)cc1
  A: -2.3%	B: -1	C: u	D: -8%	E: x	F: 24%	G: -3

Source: PubChem
